Bioassay records (PubChem)
AID504770 = growth inhibitors of E. coli YBA685 in a screen for V. cholerae RctB (chromosome II replication) inhibitors | E. coli YBA685 rctB-dependent plasmid, OD600 growth, 3 h; active compounds read low | z-score (no concentration beside the values) | hit rate 0.27% among 130,000 | AID 504770;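 active = z-score under -2 on both plates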;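 also: wells of about 30 µL received 100 nL stock; score is relative to mean and SD of the test wells; the first replicate is given; strong numbers were not always called active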
Ba CapD inh = blocks the Bacillus anthracis CapD enzyme; AID 492967; hit rate 0.23% among 140,000; purified CapD enzyme, fluorescence intensity read-out; active compounds read low; some hits fall short of the stated cut; z-score (test concentration not listed);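 active = z-score under -4 in either of two replicates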;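 also: stock transfer was 100 nL into about 40 µL; score is relative to mean and spread of the plate; one replicate is shown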
An asterisk follows results filed as active; . = not tested or not shown; & = joins results of further samples. This is a subset; count on the stated rates, not on these rows.

SMILES	AID504770	Ba CapD inh
O=C(Nc1ccc2oc(-c3ccncc3)nc2c1)c1cc([N+](=O)[O-])ccc1Br	.	1.6
O=C(Nc1ccc(-n2nncc2-c2ccccc2)cc1)c1c(F)cccc1F	-1.3	0.86
FC(F)(F)c1cc(-c2nc(=S)[nH][nH]2)cc(C(F)(F)F)c1	0.7	9.6
CCOC(=O)N1CCC2(CC1)C(C#N)=C(N)SC(N)=C2C#N	-1	.
CCOc1ccc2nc(NC(=O)c3ccc(S(=O)(=O)N4CC(C)CC(C)C4)cc3)sc2c1 (stereo not drawn)	.	0.13
COCC(C)n1c(COc2ccccc2F)nnc1SCC(=O)N(C(C)C)C(C)C (stereo not drawn)	-0.25	.
COc1ccc(C(=O)CSc2nc(SCC(=O)c3ccc(OC)cc3)c3ccccc3n2)cc1	.	2.2
c1ccc(CCNc2ncnc3ccsc23)cc1	-0.3	-0.79
O=c1cc(NCc2ccco2)[nH]c(=O)n1-c1ccc(Cl)cc1	-0.2	-0.27
Cc1oc(-c2ccccc2)nc1Cn1c(SCc2cccc(Cl)c2)nc2ccncc21	-0.6	6.3
Cc1ccc(N=C2NC(=O)/C(=C\c3ccc4c(c3)n(C)c(=O)n4C)S2)cc1	-2.2	2.6
CC(/C=N/NC(=O)c1cc(-c2ccc3c4c(cccc24)CC3)n[nH]1)=C\c1ccco1	-0.3	0.41

An excerpt from above in order of SMILES length, lowest first.
SMILES	AID504770	Ba CapD inh
O=c1cc(NCc2ccco2)[nH]c(=O)n1-c1ccc(Cl)cc1	-0.2	-0.27
COCC(C)n1c(COc2ccccc2F)nnc1SCC(=O)N(C(C)C)C(C)C (stereo not drawn)	-0.25	.
Cc1ccc(N=C2NC(=O)/C(=C\c3ccc4c(c3)n(C)c(=O)n4C)S2)cc1	-2.2	2.6
COc1ccc(C(=O)CSc2nc(SCC(=O)c3ccc(OC)cc3)c3ccccc3n2)cc1	.	2.2
CC(/C=N/NC(=O)c1cc(-c2ccc3c4c(cccc24)CC3)n[nH]1)=C\c1ccco1	-0.3	0.41

Next compounds follow.
SMILES	AID504770	Ba CapD inh
COc1nn2nnnc2c2ccccc12	-0.95	0.05
CCOC(=O)C1CCN(Cc2coc3ccc(C)cc3c2=O)CC1	0	0.57
CCc1cc(Br)ccc1S(=O)(=O)N1CCN(c2ccccc2OC)CC1	.	0.39
CC(C)N(CCNc1nc2ccccc2c2nc(-c3cccnc3)nn12)Cc1ccco1	-0.9	0.19
COc1cccc(C2C(C#N)=C(N)Oc3n[nH]c(-c4ccc(Br)cc4)c32)c1OC(=O)N1CCOCC1 (stereo not drawn)	.	0.035
CCc1ccc(NS(=O)(=O)c2cccc3nsnc23)cc1	.	-0.55
COc1ccc(N2C(=O)c3ccccc3NC2c2cc(OC)c(OC)c(OC)c2)cc1 (stereo not drawn)	.	5.4
CCSc1ncc(Cl)c(C(=O)Nc2ccccc2)n1	-0.4	-1.6
CN(C)C(=O)Cn1c(Cl)nc2ccccc21	0.1	.
CC(=O)Nc1ccc(C(=O)NCc2ccncc2)cc1	-1.1	0.66
O=C1Nc2ccccc2C1c1nc2ccccc2[nH]c1=O (stereo not drawn)	0.85	0.07
Cc1cccc(NNC(=O)CCc2ccccc2)c1	0.05	0.48
N#CCSc1nnc(-c2ccccc2)c(-c2ccccc2)n1	.	-0.12
CC(C)(C)c1ccc(C(=O)N2CCc3cc(F)ccc32)cc1	.	0.23
O=C(CSc1nc(=O)n2ccccc2n1)OCc1ccccc1	-1.3	.
Cc1[nH]nc(Nc2ccccc2)c1N=Nc1ccc(Br)cc1	-0.5	.
O=S(=O)(c1cccs1)N1CCC(O)CC1	.	0.14
COC(=O)c1ccc(COc2ccc3c(-c4ccccc4)cc(=O)oc3c2C)o1	-0.85	-0.85
O=C(O)CCC(=O)Nc1cccc2ccccc12	-0.95	0.18
O=C(Nc1ccc2sc3ccccc3c(=O)c2c1)c1ccccc1Cl	.	1.7
Cc1ccc2nc(NC(=O)c3ccccc3F)sc2c1	0.4	32
N=c1sc(C(=O)c2ccccc2)c2scc(-c3ccccc3)n12	-0.05	-0.17
O=C(Nc1ccc(N2CCOCC2)nc1)c1c(F)cccc1F	-0.25	-0.33
Cc1cccc(C)c1NC(=O)C1(NC(=O)C(C)O)CCCC1 (stereo not drawn)	1.2	-0.19

Full records, looked up by structure. Order of values: AID504770 | Ba CapD inh
N#CCSc1nnc(-c2ccccc2)c(-c2ccccc2)n1 is listed with . | -0.12
O=C(CSc1nc(=O)n2ccccc2n1)OCc1ccccc1 is listed with -1.3 | .
N=c1sc(C(=O)c2ccccc2)c2scc(-c3ccccc3)n12 is listed with -0.05 | -0.17

Continuation.
SMILES	AID504770	Ba CapD inh
COc1nc(C)nc2c1sc(=S)n2C	-0.5	-0.44
COc1cccc(Nc2ncnc3nc[nH]c23)c1	-0.05	.
CCCc1ccc(/C=N/NC(=O)c2ccc([N+](=O)[O-])cc2Cl)cc1	.	0.3
O=C(O)c1coc2c1C(=O)CCC2	.	0.055
COc1ccc(C(C#N)N2CCN(C(C#N)c3ccc(OC)c(OC)c3)CC2)cc1OC (stereo not drawn)	-0.45	.
N=c1oc2ccc(Br)cc2cc1-c1ccccn1	1.1	0.095
Cc1sc(NC(=O)CSc2ccccc2)c(C#N)c1C	-0.85	.
O=C(c1sc2ccccc2c1Cl)n1cccn1	-0.2	4.8
Cc1noc(C)c1S(=O)(=O)Nc1ccc(N2CCCCC2)cc1	-1.1	1.2
Cc1ccc(NP(C(C)C)C(C)C)nc1	-0.55	14
O=C(Cc1ccc(-n2cccc2)cc1)N1CCc2ccccc21	-0.65	-0.78
CC/C(=N\OC(=O)c1cccs1)c1ccc(-c2ccccc2F)cc1	.	0.71
C=C(NCc1ccncc1)c1ccc(Cl)cc1	-0.55	-0.12
COC(=O)c1[nH]c(CN2C(=O)c3ccccc3S2(=O)=O)c(C(=O)OC)c1C	-0.6	.
CC(=O)Nc1ccc(C#N)c(OC(F)F)c1	-1.4	.
O=C(c1cccc(NC2=NC3CS(=O)(=O)CC3S2)c1)N1CCCC1 (stereo not drawn)	0.95	-0.47
CC(=O)N1CCN(CCN=CC2=C(O)CC(c3ccco3)CC2=O)CC1 (stereo not drawn)	1.2	.
CCOc1ccc(-c2c(C#N)c(N)n3c(nc4ccccc43)c2C#N)cc1OC	.	-0.65
CCCC1CCC(C2CCC(C#N)CC2)CC1 (stereo not drawn)	0.6	0.44
COc1ccc(CNC(=O)C2COc3ccccc3O2)cc1 (stereo not drawn)	0.8	0.43
O=S(=O)(Oc1ccc(Cl)cc1)c1ccc(-c2csnn2)s1	.	-0.035
CC1=C(C(=O)OCCc2ccccc2)C(c2cc3c(cc2Br)OCO3)NC(=O)N1 (stereo not drawn)	.	0.57
S=C=NCC1CCCO1 (stereo not drawn)	-1.1	.
CC1(C)COC(c2sccc2C(=O)N(C(=O)NC2CCCCC2)C2CCCCC2)=N1	-0.3	0.76
CCc1ccc(NC(=O)C(=O)NCCN2CCN(Cc3ccc(C)cc3)CC2)cc1	.	-0.57
CC(C)(C)C1=CC2(C=C(C(C)(C)C)C1=O)Nc1cc(Cl)ccc1OC2c1ccccc1 (stereo not drawn)	.	50
O=[N+]([O-])c1cnc(-n2cccc2)s1	.	-0.095
COc1cccc(C(C)NC(=O)c2ccccc2OC)c1 (stereo not drawn)	0.95	0.17
Cc1ccc2c(c1)C1CN(C)CCC1N2C(=O)C1CC1 (stereo not drawn)	.	-0.14
COc1cc(OC)nc(NC(C)=O)n1	-0.55	0.36
C=CCN(Cc1nc(-c2ccccc2)no1)C(=O)COc1ccccc1	2.6	-0.71
Cc1cccc(N(C)S(=O)(=O)c2ccc3c(c2)C(C)(C)C(=O)N3C)c1	-0.8	-1.2
Cc1cc(C)c(S(=O)(=O)Nc2cc(Br)c3oc4c(c3c2)C(=O)CCC4)c(C)c1	.	0.25
O=C(CSc1nnc(NC(=O)COc2ccccc2)s1)Nc1ccc(Br)cc1	.	0.035
COc1ccc(OCC#CCOc2ccccc2)cc1	0.8	0.6
O=C1CCC2(C(=O)NC34CC5CC(CC(C5)C3)C4)SCCN12 (stereo not drawn)	-0.35	.
CC(=O)N1CCC2(CC1)c1cccn1-c1ccccc1CN2C(=O)Nc1ccc(C)cc1C	1.1	1
C=CCn1c(=O)/c(=C/c2ccc(-c3ccc(Br)cc3)o2)s/c1=C(/C#N)c1nnc2n1CCCCC2	2.9	.
Cc1ccc(SCc2nc3ccccc3n2CC(=O)Nc2ccccc2)cc1	.	-0.53
O=C1CSC(=O)N1Cc1cc2c(cc1Cl)OCO2	0.45	.
O=S(=O)(NC1CCCCC1N1CCC(O)CC1)c1ccc(Cl)cc1 (stereo not drawn)	-1.5	-0.11
Cc1ccc(C=Nc2ccccc2C(N)=O)s1	0.55	65
O=C(Nc1nnc(SCc2cccc(F)c2)s1)C1CCCCC1	-0.9	0.93
CC(C)C(NC(=O)/C=C/c1ccc(Br)o1)c1ccc2c(c1)OCCCO2 (stereo not drawn)	0	.
Cc1ccc(C)c(S(=O)(=O)N2CCCN(C)CC2)c1	-0.65	.
Cc1ccc(Nc2nnc(SC(C)C(N)=O)s2)cc1 (stereo not drawn)	-1.4	.
COc1cccc(NC(=S)N=Nc2c(O)n(C)c3ccc(S(=O)(=O)N4CCOCC4)cc23)c1	-0.05	1
CSc1nc(C23CC4CC(CC(C4)C2)C3)ccc1C#N	-0.25	0.035
c1cc2c(cc1C1CC1)OCCO2	1.1	0.66
Cc1ccc(/C=[N+](\[O-])c2ccccc2C)o1	-0.7&-0.05	-2.7
O=C(CCCn1c(=O)c2cccn2c2ccccc21)NC1CCCCC1	-0.4	0.33
O=C(O)c1cc(S(=O)(=O)NNc2ccc(Cl)cc2)ccc1O	-1.1	.
Cc1ccc(CN2CC(C(=O)N3CCCc4ccccc43)CC2=O)cc1 (stereo not drawn)	-0.05	.
CC1CCCCC1NC(=O)CCCn1c(=O)[nH]c2ccsc2c1=O (stereo not drawn)	-2.5	-1.2
CCOC(=O)c1c(NC(=O)CS(=O)(=O)c2cn(CC)c3ccccc23)sc2c1CCCC2	0.55	-0.57
CC(C)COC(C(=O)O)(c1ccccc1)c1ccccc1	0.2	0.075
CC1(C(=O)NC2CCCC2)CCC(=O)N1Cc1cccnc1 (stereo not drawn)	-0.1	0.65
Nc1nc(CN2c3cccc4cccc(c34)S2(=O)=O)nc(N2CCOCC2)n1	.	6.5
COC(=O)C1=C(O)CSC1=Nc1ccccc1	1.9	-0.21
CC(C)CN1C(=O)/C(=C\c2ccc(-c3ccc(S(N)(=O)=O)cc3)o2)SC1=S	0.55	.

Pulled by compound from the entries so far, four records:
SMILES	AID504770	Ba CapD inh
CC1CCCCC1NC(=O)CCCn1c(=O)[nH]c2ccsc2c1=O (stereo not drawn)	-2.5	-1.2
O=C(O)c1cc(S(=O)(=O)NNc2ccc(Cl)cc2)ccc1O	-1.1	.
CC1(C(=O)NC2CCCC2)CCC(=O)N1Cc1cccnc1 (stereo not drawn)	-0.1	0.65
CC(C)COC(C(=O)O)(c1ccccc1)c1ccccc1	0.2	0.075

Next structures follow.
SMILES	AID504770	Ba CapD inh
Cc1ccc(C)n1-c1ccc(C(=O)NCc2cccnc2)cc1	-0.85	.
O=C(O)c1ccccc1C(=O)Nc1cc(C(F)(F)F)ccc1Cl	.	0.16
CCOn1c(=O)c(-c2ccccc2)[n+]([O-])c2ccccc21	0.7	0.25
c1ccc2c(c1)Oc1ccccc1C2N1CCOCC1	-0.5	0.35
CN(C)C1(CNC(=O)c2cccc(NS(=O)(=O)c3ccc4c(c3)OCCO4)c2)CCCCC1	-0.05	.
COc1ccc(NC(=O)c2ccc3cccc(O)c3n2)cc1Cl	1.3	-0.81
COc1c(S(=O)(=O)Nc2cccnc2)ccc(Cl)c1Cl	-0.25	-0.24
Cc1ccc(S(=O)(=O)N2CCC(C(=O)Nc3ccc(Cl)cc3)CC2)cc1	.	-0.03
COc1ccc(OC)c(COC(=O)N2CC=C(n3c(=O)[nH]c4ccccc43)CC2)c1	.	0.43
FC(F)(F)c1cccc(Oc2nnc(-c3ccccc3)c3ccccc23)c1	.	0.58
O=C(O)CC1NC(=O)NC1=O (stereo not drawn)	-0.95	.
O=C(C1c2ccccc2Oc2ccccc21)N1CCCCC1	0.05	.
Cc1ccccc1CN1C(=O)C2(OCCCO2)c2ccccc21	0.05	1.3
O=C(NCCCN1CCCC1=O)c1cccc(Oc2ccccc2)c1	0.7	0.075
Cc1nc(N2CCN(C)CC2)sc1C(=O)N(C)C	0.8	.
O=C(Nc1ccc(Cl)cc1Cl)c1cc2nc3c(c(C(F)(F)F)n2n1)CCc1ccccc1-3	-1.2	0.23
CCSc1nnc2c(n1)OC(c1cc3c(cc1Cl)OCO3)Nc1ccccc1-2 (stereo not drawn)	-0.4	-0.23
O=C(COC(=O)C12CC3CC(CC(Br)(C3)C1)C2)NC1CC1	-0.55	0.065
COCCNC(=O)c1nn2c(C(F)(F)F)cc(-c3ccccc3)nc2c1Br	.	-0.045
O=C(Nc1ccccn1)C1(c2ccccc2)CCCC1	-0.55	.
O=C(NCCCN1CCN(c2ccccc2F)CC1)C1CCN(S(=O)(=O)c2cccc3cccnc23)CC1	-0.4	2.8
O=C(O)c1cc(C=Nc2ccc3c(c2)OCCOCCOCCO3)ccc1O	-0.15	-1.3
O=C1C(=O)N(c2ccc(Br)cn2)C(c2ccccc2)/C1=C(\O)c1ccc(Cl)cc1 (stereo not drawn)	.	5.9
Cc1ccc(NC(=O)N2CCCn3c(SCC(=O)c4ccccc4)nnc32)cc1	0.45	-0.45
CC(=O)c1ccc(Nc2ccnc3cc(Cl)ccc23)cc1	.	12
CCOC(=O)CC(=O)CSc1nc2sc(C(=O)OCC)c(C)c2c(=O)n1CCc1ccc(OC)c(OC)c1	.	-1.2
CSc1nc2ccc(NC(=O)/C=C/c3cccs3)cc2s1	-0.7	-0.35
CN(C)CCNS(=O)(=O)c1ccc(S(C)(=O)=O)cc1	.	0.005
